Compound activity (PubChem BioAssay)
BasE inh: BasE siderophore biosynthesis inhibition | purified BasE, fluorescence polarization binding displacement | inhibition, % (concentration not given with the values) | 0.1% of 84,000 active | AID 485350;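 active = both replicates above 25% with normal brightness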;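 note: 0% = negative plate control signal and 100% = positive plate control signal; stock transfer was 100 nL into about 30 µL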
LANA-nucl inh: LANA-nucleosome interaction inhibition. FITC-LANA1-23 / chicken nucleosome fluorescence polarization; active compounds read low. AID 720717. z-score (no concentration beside the values). 0.3% of 51,000 active;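 active = both repeat wells score below -2 in polarization z-score versus plate sample wells, excluding overly bright wells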;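 note: 100 nL library stock added to about 30 µL; numbers are from one replicate; some results filed as inactive read as strong as hits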
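test system = FITC-LANA peptide and chicken nucleosomes | amount = 240 nM purified chicken nucleosomes (480 nM peptide binding sites), final | reagent = 50 nM FITC-LANA1-23 probe | medium = TEN-BT buffer, pH 7.5 | doses = single compound addition by pin transfer, 100 nL per well | timing = 10–45 min, room temperature | detection = fluorescence polarization | repeats = duplicate plates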
An asterisk follows results filed as active; / = no result given; & = joins results of further samples.

structure,BasE inh,LANA-nucl inh
C/C(=N\OC(=O)c1ccccc1)c1cc(-c2ccccc2)no1,-1.1,0.12
CCOC(=O)C1=CN(C)C=C(C(=O)OCC)C1c1ccc(C)c(Br)c1,-1.1,-2.1
COc1ccc(C(=O)n2cnnc2N)cc1,-1.3,-0.59
CSc1cccc(NC(=O)CN(C)S(=O)(=O)c2ccccc2)c1,0.9,-1
N#C/C(=C1/CCCN1)c1nc2ccccc2s1,-0.5,/
CN(Cc1n[nH]c(=S)n1C)S(=O)(=O)c1ccccc1,0.3,-0.27
Cc1ccc(/C=C/C(=O)O)c(Br)c1,2.3,/
CSc1nnc(SC(C)C(=O)Nc2c(C)cccc2C(C)C)n1N (stereo not given),0.5,/
O=C(NCCCN1CCCC1)c1noc2c1CCCCC2,-3.6,/
Cn1ncc2c(O/N=C(\N)c3ccc(C(F)(F)F)cc3)ncnc21,1.4,-0.31
CCc1ccc(NC(=O)Cn2c(=O)n(CCC(=O)NCc3ccco3)c(=O)c3ccccc32)cc1,2.6,0.54
COc1ccc(-n2c(SCC(=O)/C(C#N)=C(\C)N)nc3ccccc3c2=O)cc1OC,-1.1,/
O[N+]1=CC=CCC1=S.On1ccccc1=S.[Zn],-1.4,0.57&-0.52
CCCc1nn2c(=O)cc(COc3ccc(NC(=O)C(C)C)cc3)nc2s1,1.2,-0.092
CCn1c(=N)n(CCOc2ccc(C)cc2)c2ccccc21,-3.1,/
Cc1cc(-c2ccc(C(C)C)c(S(=O)(=O)NCCN3CCC(C)CC3)c2)on1,-12,/
Fc1ccc(CSc2nc(N3CCOCC3)nc(N3CCOCC3)n2)cc1,1.3,-0.42
CN(C)C(=S)Nc1cccc2ccccc12,2.6,-0.44
CCOC(=O)Cn1nc(NC(=O)c2ccc(C(=O)OC)cc2)cc1C,4.0,0.008
O=S1(=O)CCC(NC(=S)SCCOc2ccccc2OCCO)C1 (stereo not given),1.0,-0.52
O=C(Cn1nnc2ccccc2c1=O)c1ccccc1,-1.6,/
COC(=O)c1ccccc1NC(=O)c1cccs1,-6.3,/
Cc1nn(CC(=O)NCc2cccnc2)c(=O)c2ccccc12,-0.5,-0.037
O=C(NCc1ccc(Cl)cc1)c1ccc(CS(=O)c2cccc(Cl)c2)o1 (stereo not given),-0.9,0.6
Cc1ccc(NC(=O)c2cccc3c2C(=O)N(Cc2cccnc2)C3)cc1F,-0.1,-0.35
CCCN(CCC)C(=O)c1cccc2c1-c1ccccc1C2=O,-0.4,/
Nc1nnc(SCC(=O)NC2CCCCC2)s1,0.3,-0.95
O=C(CSc1nnc2[nH]c(=O)ccn12)NCc1ccc(F)cc1,0.5,-0.066
C=CCNC(=O)c1ccc(COc2ccccc2Cl)o1,-2.8,0.75
CCn1c(=O)cc(OCC(=O)O)c2ccccc21,1.9,-1.1
Cn1c(=O)n(C2CCCCC2)c(=O)c2ccccc21,0.8,0.31
O=C(CN1CCN(C(=O)c2cccnc2Sc2ccc(Cl)cc2)CC1)N1CCCC1,-0.6,/
CC(C)(C)OC1CC(C(=O)O)N(C(=O)OCc2ccccc2)C1 (stereo not given),2.0,-0.29
O=C(CSc1nc(-c2ccccc2)c(-c2ccccc2)o1)NC1CCS(=O)(=O)C1 (stereo not given),-4.8,/
CC(=O)Oc1cccc2cc(-c3nc(-c4ccc(F)cc4)no3)c(=O)oc12,0.3,1.4
CCNC(=O)CSc1nnc(-c2cc(OC)c(OC)c(OC)c2)o1,-0.2,/
O=C(c1ccc(F)cc1)c1c[nH]c(C(=O)NCc2ccc(F)cc2)c1,/,-0.28
CCc1nn(Cc2cccc(C)c2)c(=O)c2cc3cc(C)ccc3n12,1.5,0.76
CC(C)(S)P(=O)(O)c1ccccc1,2.9,-0.51
CCCCS(=O)(=O)NC1=NCN(C2CCN(Cc3ccccc3)CC2)CN1,0.3,/
O=C1CC(c2ccc(Cl)cc2)CC(O)=C1C=NCCN1CCNCC1 (stereo not given),-11,1.8
CCOC(=O)/C(=N\O)C1=NC2(CCCC2)Cc2cc(OC)c(OC)cc21,2.4,/
CCOC(=O)c1ccc2c(c1)nc(SCC(=O)c1ccc3c(c1)OCCO3)n2CC,2.3,/
CN1CCC(N(C)CC(O)COCc2cccs2)CC1 (stereo not given),3.6,/
O=C(O)c1ccc(N=Cc2cn(Cc3ccccc3)c3ccccc23)cc1,-1.3,/
O=C(CN1CCC2(CC1)N=C(c1ccccc1)C(=O)N2)Nc1ccc(F)cc1F,1.2,-0.89
CN(C)S(=O)(=O)c1ccc(C(=O)NCCc2ccccc2)cc1,-0.9,-0.39
COc1ccc(CC(=O)Oc2ccc(C#N)cc2)cc1,4.1,-1
O=C(OCC1CC1)c1cnc(N2CCOCC2)nc1C(F)(F)F,3.9,-0.21
Cc1ccc(OCC(O)CN2CC(C)CC(C)C2)cc1 (stereo not given),-1.9,/
Cc1ccc(OC(=O)Cn2c(C(F)(F)F)nc3ccccc32)cc1,/,-1.1
C=CC(=O)N1CN(C(=O)C=C)CN(C(=O)C=C)C1,4.3,-0.36
O=C1CC2(CCCC2)CC(=O)N1CCCCN1CCN(c2ncccn2)CC1,-0.1,0.16&-0.039&-0.42
CSc1cccc(NC(=O)C2CCN(S(=O)(=O)c3ccc4[nH]c(=O)oc4c3)CC2)c1,-21,0.56
CCCN(CCC)S(=O)(=O)c1ccc(C(=O)Nc2nnc(-c3cccc(OC)c3)o2)cc1,-0.9,2.2
C(=NCc1cccnc1)c1c2ccccc2cc2ccccc12,5.4,/
CCOc1ccccc1OC(=O)c1ccc2ncsc2c1,4.0,/
CCc1c(C)[nH]c2c1C(=O)C(CN1CCOCC1)CC2 (stereo not given),-0.4,-0.85
COc1ccc(-c2nc(C#N)c(N(C)C)o2)cc1,3.0,0.12
O=C(Cn1nc(-c2ccccc2)ccc1=O)Nc1nccs1,-1.0,0.33

Following part
structure,BasE inh,LANA-nucl inh
COc1cccc(C2CC(c3cccs3)=NN2C(=O)CN2CCN(C)CC2)c1O (stereo not given),0.1,0.009
N/C(=N\OC(=O)CCN1C(=O)c2ccccc2C1=O)c1ccncc1,2.6,-0.36
Cc1ccc(CN(C)Cc2cc(=O)oc3cc4c(cc23)CCC4)o1,2.7,/
Cc1nc2ccc(NS(=O)(=O)c3ccccc3C(F)(F)F)cc2o1,4.1,/
CN1CCN2c3ccccc3Cc3ccccc3C2C1 (stereo not given),-2.2,1.3&0.26&-0.87
O=C(CN1C(=O)COc2ccccc21)N(Cc1ccccc1)Cc1ccccn1,-2.2,0.74
CN(Cc1cccc(Cl)c1)Cc1cc2c(cc1O)CCC2,-2.5,/
Cc1ccc(C2OC3=C(C(=O)CC(C)(C)C3)C(N)=C2C#N)o1 (stereo not given),-3.4,-0.011
Cc1ccc(S(=O)(=O)NCc2cn3ccccc3n2)c(C)c1,-2.9,2.5
O=C(N/N=C/c1ccco1)C1c2ccccc2Oc2ccccc21,2.8,-0.24
CN1C(=C(C#N)C(=O)COc2ccc(C#N)cc2)N(C)c2ccccc21,0.9,/
CCCC(c1nnnn1Cc1ccc(OC)cc1)N1CCC(C(N)=O)CC1 (stereo not given),0.6,0.021
N#Cc1ccc(COC(=O)Cn2c(-c3ccccc3)cc3ccccc32)cc1,-0.3,/
COc1ccc(CNC(=O)c2c(-n3cccc3)sc3c2CCCC3)cc1,-6.0,/
Cc1n[nH]c(C)c1S(=O)(=O)N1CCC(C(=O)OCc2ccc(C(C)(C)C)cc2)CC1,3.5,/
O/N=C1/C2C3CC4C2/C(=N/O)C2C1C3C42 (stereo not given),1.6,/
COC(=O)c1ccc2c(=O)[nH]c(COC(=O)C3CC4CCCC(C3)C4=O)nc2c1 (stereo not given),0.6,/
CCOc1cc(NC(=O)C2CC2)c(OCC)cc1NC(=O)CCn1nnc2ccccc21,-2.5,-0.1
CCOC(=O)Cn1c(=NC(=O)c2ccco2)sc2cccc(F)c21,0.1,-0.55
C[n+]1ccn(-c2ccccc2C#N)c1,/,-1.2
COc1cc(CC(=O)OCC(=O)N2CCCC2=O)cc(OC)c1OC,-1.4,/
CCn1c(NCc2ccccc2)nc2ccccc21,-3.9,2.6
COC(=O)CSc1nnc(COc2cccc3ccccc23)o1,-1.5,1.1
O=C(CSc1nncs1)c1cccs1,0.8,/
O=S(=O)(Nc1ccc2c(c1)N(S(=O)(=O)c1cccs1)CCC2)c1cccs1,2.6,0.31
COc1ccc(OC)c(S(=O)(=O)N2CCn3cccc3C2c2ccc(Cl)cc2Cl)c1 (stereo not given),-0.5,1.2
COC(=O)CSc1n[nH]c(C)n1,-0.1,0.66
N#CC1=C2SCCN2C(=O)C(C#N)C12CCCCC2 (stereo not given),0.7,-0.32
N#CC(C#N)=CNc1ccccc1N,-22,7.3
CNC(=O)c1ccccc1COC(=O)c1cccs1,0.9,-2.5
COc1ccc(Nc2cc(Nc3ccccc3)ncn2)cc1,3.0,0.27
N#CC(C(=O)c1ccccc1Cl)=C1SCCS1,2.9,-0.089
COCCn1cc(C(=O)c2ccccc2O)cc(C#N)c1=O,-0.9,/
COc1cccc(-c2nc3cc(C)ccc3o2)c1,-1.3,-0.34
O=C(O)c1ccc2c(c1)sc1nc(-c3ccc(F)cc3)cn12,2.7,-1.2
Cc1ccc2[nH]c(=O)c(CNCCCN(C)C)cc2c1,-3.0,0.27
O=S(=O)(Nc1ccc(Cl)cc1)c1ccccc1,/,-0.79
O=C1c2ccccc2C(=O)N1CNc1ccccc1C1CC1,1.9,-0.37
CC1(C)Cc2ccccc2C(NN=C2CCCCC2)=N1,0.8,0.13
CCN(C(=O)c1ccco1)c1nnc(Cn2nnc3ccccc32)s1,6.0,0.2
COc1cc(Br)cc(C=Nc2cc(C)on2)c1O,2.4,-0.095
COc1cc(OC)nc(NC(=O)COC(=O)c2ccc(S(=O)(=O)Nc3ccc(C)cc3)cc2)n1,2.6,/
CNc1cnn(C23CC4CC(CC(CC(=O)O)(C4)C2)C3)c(=O)c1Cl,3.1,0.21
NC(=O)C1CCN(CC(=O)NC(c2ccccc2)c2ccccc2)CC1,0.8,/
N#Cc1cnc(N2CCCCC2)[nH]c1=O,0.3,-0.35

5 compounds picked at random from those above, as already listed:
structure,BasE inh,LANA-nucl inh
CC1(C)Cc2ccccc2C(NN=C2CCCCC2)=N1,0.8,0.13
COc1cc(Br)cc(C=Nc2cc(C)on2)c1O,2.4,-0.095
N#CC(C(=O)c1ccccc1Cl)=C1SCCS1,2.9,-0.089
O=C(O)c1ccc2c(c1)sc1nc(-c3ccc(F)cc3)cn12,2.7,-1.2
NC(=O)C1CCN(CC(=O)NC(c2ccccc2)c2ccccc2)CC1,0.8,/

(list continues)
structure,BasE inh,LANA-nucl inh
Cc1ccc(-n2nnc3c(=O)n(CC(=O)N4CC(C)OC(C)C4)cnc32)cc1Cl (stereo not given),-1.2,-0.14
Cc1cc(NCc2ccccc2)c2nncn2n1,1.3,-0.42
CCOC(=O)c1c(NC(=O)c2ccco2)sc2c1CC(C)(C)NC2(C)C,0.0,-1.1
COc1ccc(Cn2nnc3c(C)nnc(N4CCOCC4)c32)cc1,2.6,-0.077
COc1ccc(CNC(=O)c2cccc(N3CCCC3=O)c2)cc1,-1.3,0.9
Cc1cc2nc(Oc3ccc(S(=O)(=O)N4CCOCC4)cc3)c3ccccc3n2n1,-0.8,/
Cc1ccccc1Cn1c(=N)n(CCO)c2ccccc21,-7.1,0.36
Cc1cc(OCC(=O)OC(C)C(N)=O)c(C(C)C)cc1Cl (stereo not given),0.5,/
S=c1[nH]c2ccc(Cl)cc2[nH]1,0.6,-1.4
CCOc1ccc(NC(=O)NCCCn2c(C)nc3cc(C)c(C)cc32)cc1,1.5,-0.11
CCOc1ccccc1OC(=O)Cc1cc(OC)c(OC)c(OC)c1,-1.1,/
COCCn1ccc2c(OCC(=O)Nc3cccc(NC(C)=O)c3)cccc2c1=O,-2.9,0.75
Oc1ccc2ccccc2c1CN1CCN(C/C=C/c2ccccc2)CC1,0.9,-0.23
CC(C)N1C(=O)c2ccccc2C1C(=O)NCCc1ccccc1 (stereo not given),0.5,0.56
COC(=O)c1cn(CC(=O)N2c3ccccc3CC2C)c2ccccc12 (stereo not given),1.0,-0.8

Reprinted from the part before: 3 compounds, followed by the next part.
structure,BasE inh,LANA-nucl inh
Oc1ccc2ccccc2c1CN1CCN(C/C=C/c2ccccc2)CC1,0.9,-0.23
CC(C)N1C(=O)c2ccccc2C1C(=O)NCCc1ccccc1 (stereo not given),0.5,0.56
COC(=O)c1cn(CC(=O)N2c3ccccc3CC2C)c2ccccc12 (stereo not given),1.0,-0.8
CC(Sc1nnc(COc2ccccc2F)n1-c1ccccc1)C(=O)NC(N)=O (stereo not given),-2.7,/
CCSc1cnn(C)c(=O)c1SCC,0.1,0.15
CC(C)(C)c1cc(C(=O)Nc2ccc(Cl)cc2)n(Cc2ccccc2)n1,0.3,/
c1csc(-c2nc(-n3ccnc3)c3ccccc3n2)c1,0.9,/
COc1ccc(-c2noc(CCC(=O)O)n2)cc1OC,-0.7,/
Cc1noc(C)c1COc1ccc(C(=O)NCC2COc3ccccc3O2)cc1 (stereo not given),-0.1,/

Some of the compounds tested; rates above refer to the full screens.
